# Assay outcomes (PubChem BioAssay)
# TRPML1 ag: human mucolipin-1 channel agonism. Q9GZU1. TRPML1-expressing cells, Ca2+ dye fluorescence, FDSS; host cell line not named in the record; reference of the full effect not given here. activation, % (no concentration beside the values). 0.12% of 410,000 active. AID 624414; in the data active = activation above about 50%; inconclusive = about 30% to 50%; inactive = below about 30%; further: 0% is about no effect; the text of the record puts the active cut at 80%
# Target sequence (Q9GZU1 whole entry, looked up): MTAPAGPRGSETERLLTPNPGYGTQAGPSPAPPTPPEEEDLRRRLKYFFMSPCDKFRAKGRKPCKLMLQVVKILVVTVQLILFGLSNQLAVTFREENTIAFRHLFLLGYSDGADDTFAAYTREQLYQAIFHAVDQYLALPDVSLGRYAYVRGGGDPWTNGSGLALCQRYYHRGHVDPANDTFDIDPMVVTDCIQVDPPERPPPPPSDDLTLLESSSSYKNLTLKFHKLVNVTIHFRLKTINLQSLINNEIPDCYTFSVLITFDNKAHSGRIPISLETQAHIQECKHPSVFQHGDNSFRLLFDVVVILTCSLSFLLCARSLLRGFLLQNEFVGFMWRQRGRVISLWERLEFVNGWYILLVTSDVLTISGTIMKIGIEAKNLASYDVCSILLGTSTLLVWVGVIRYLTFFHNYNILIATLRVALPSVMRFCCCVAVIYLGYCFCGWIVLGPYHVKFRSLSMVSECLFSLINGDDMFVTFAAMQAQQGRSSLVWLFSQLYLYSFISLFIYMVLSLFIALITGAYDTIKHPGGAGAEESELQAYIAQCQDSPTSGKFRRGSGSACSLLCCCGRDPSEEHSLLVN
#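 Calcium fluorescence on an FDSS kinetic reader gave the read-out. Tet-induced TRPML1-DL cells were plated overnight, dye-loaded (Ca8 with quencher, 45-90 min, room temperature, dark), then read 110 s after compound addition, and again 110 s after 4uM final 54-4 (EC80).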
# Menin-MLL FL inh: displaces fluorescein MLL peptide from human menin; 290,000 tested, under 10 active; FP activity change, % at 61.4 µM; Fluorescence polarization, fluorescein-MLL peptide displacement from menin; inconclusive = falling polarisation curve, or a change in total fluorescence; inactive = total fluorescence flat and polarisation flat or rising; no compound was filed as active; the % refers to the polarisation; negative = inhibition;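 further: % of control where 0% means no effect; inhibitors lower the polarisation; unlabelled MLL peptide was the positive control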
# gsp antag: antagonists of gsp mutant (McCune-Albright syndrome). gsp-mutant cells, cAMP HTRF, 30 min; control for the full effect not named in the record. Potency, µM (doses to about 76.9 µM), for inactives: top-dose activity change, negative = inhibition, usual class: inhibitors. 0.4% of 340,000 active. AID 624288; active = falling curve of any shape with a large fitted effect; inconclusive = falling curve, mostly with a smaller effect; inactive = flat or rising curve; cell line not stated here;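 further: intracellular cAMP measured with PDE inhibitor Ro 20-1724 present during compound exposure; potency means the concentration at half of the fitted maximal effect; on the % scale 0 is the no-effect control and ±100 the full control effect; nearly all actives have a fitted effect of over 65% in size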
#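 Cells in G418 medium, seeded 16-24 h, 37C; buffer exchange to DPBS + 1 mM CaCl2, 0.5 mM MgCl2, 0.05% BSA; cpds in DMSO + […] (300 uM stock), 30 min 37C; HTRF cAMP detection.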
# gsp ag: activates gsp, the McCune-Albright syndrome mutation. Potency, µM (highest dose often 76.9 µM), without a hit: at the highest dose activation (cAMP increase), actives largely listed as activators. gsp mutant cells, cAMP HTRF, 30 min; control for the full effect not named in the record. 0.13% of 340,000 active; active = well fitted activation curve with a large enough effect; inconclusive = small, poorly fitted or top-dose-only effect, or another doubt; inactive = no such curve, though single readings can be large or run the other way; cell line not stated here;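 further: phosphodiesterase inhibitor Ro 20-1724 added with compounds to block cAMP breakdown; potency means the concentration at half of the fitted maximal effect; nearly all actives have a fitted effect of over 60% in size; about a fifth of the inactives were tested at one dose only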
#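 Cells in DMEM/10% FBS with G418 were pretreated with compounds in DMSO plus […] (300 uM stock) for 30 min at 37C. cAMP was measured by HTRF (cAMP-d2 plus anti-cAMP antibody-K) after 30 min at room temperature.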
# ClpP mod: qHTS Assay for Activators of ClpP. ATP-dependent Clp protease proteolytic subunit (Bacillus subtilis (strain 168)), P80244. 1.9% of 340,000 active. AID 651965, 2013. Potency, µM (highest dose often 57.5 µM), for inactives: top-dose activity change, negative = active. purified B. subtilis ClpP, FRET peptide cleavage, 20 min; active = well fitted falling curve with a large enough effect; inconclusive = small, poorly fitted or top-dose-only effect; inactive = no such curve, though single readings can be large or run the other way; further: potency means the concentration at half of the fitted maximal effect; the source files actives as falling curves though it sought activators and does not explain the sign; nearly all actives have a fitted effect of over 65% in size; many hits overshoot -100%
# Target sequence (P80244 whole entry, looked up): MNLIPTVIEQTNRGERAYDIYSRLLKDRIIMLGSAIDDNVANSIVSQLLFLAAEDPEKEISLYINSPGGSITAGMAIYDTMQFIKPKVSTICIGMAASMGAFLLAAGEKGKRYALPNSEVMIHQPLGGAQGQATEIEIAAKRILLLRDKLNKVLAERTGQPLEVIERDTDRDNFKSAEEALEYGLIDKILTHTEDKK
#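 FRET quenching reversal measured ClpP activation: 10 microg/mL B. subtilis ClpP at pH 8 with the FRET-FV decapeptide, read at 430 nm after 320 nm excitation. The 20-min minus 0-min signal was scaled between DMSO/no-enzyme wells and ADEP (5.8 microM final).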
# TRPML1 inh: human mucolipin-1 channel inhibition. Q9GZU1. TRPML1-inducible cells, Ca2+ dye fluorescence, FDSS; stronger effect = lower value; inhibition of EC80 agonist-evoked calcium signal. activity change, negative = inhibition, % (test concentration not listed). 0.02% of 390,000 active; in the data active means activity change below about -50%; inconclusive means about -30% to -50%; inactive means above about -30%;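 further: stimulus is agonist 54-4 at its EC80 concentration; on the % scale 0 is the no-effect control and ±100 the full control effect; compound concentration not given in the record; the text of the record puts the active cut at -80%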
#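 TRPML1-DL cells, Tet-induced overnight (~16 h, 37 °C) at 1,500 cells/well, were loaded with Ca8 no-wash dye plus quencher for 45-90 min at room temperature. Compounds were pinned during FDSS kinetic reading; agonist 54-4 at EC80 (4 uM final) then added.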
# The depositor's hits bear a star; ? = inconclusive; . = no result given; & = joins results of further samples; [ ] = another dose, or the depositor's remark.
SMILES,TRPML1 ag,Menin-MLL FL inh,gsp antag,gsp ag,ClpP mod,TRPML1 inh
COc1ccc(C2C(C(=O)c3ccccc3)=C(C)Nc3nc4ccccc4n32)cc1OC (configuration not stated),-1.0,0.9,8%,11%,-1.1%,-3
CC(=O)N(C)c1ccc(N=Nc2c(C)[nH]n(C(N)=S)c2=O)cc1,0.7,1.5,-28%,-74%[inhibitor],0.1%,0
O=S(=O)(NC1CCCCC1)c1ccc(F)c2ccccc12,-0.4,0.6,-11%,6%,-0.6%,-3
CN(Cc1nc2c(s1)CCCC2)C(=O)CCc1nnc(-c2ccc3c(c2)OCO3)o1,1.2,6.6,-22%,0%[15.4 µM],.,-18
CC(=O)Oc1ccc(C#C/C=C2\c3ccccc3C(=O)N2c2ccccc2)cc1,1.6,.,-19%,.,-1.5%,5
Cc1cc(C)c2nc(N3CCCC(C(=O)N4CCC(C(N)=O)CC4)C3)sc2c1 (configuration not stated),0.1,3.5,0%,20%,-0.8%,22
CCOc1cc2[nH]c(=S)n(CCCN(CC)CC)c(=O)c2cc1OCC,-0.3,11,14%,-29%,-5.6%,-1
COc1ccccc1NC(=O)N1c2ccccc2NC(=O)CC1C (configuration not stated),0.5,4.2,6%,7%[15.4 µM],-2.1%,0
COc1ccc(/C(N)=N/OC(=O)CCc2ccccc2)cc1,0.2,-1.7,-8%,-32%[inhibitor],1.7%,-1
O=C(Nc1nc(-c2ccc(Cl)cc2Cl)cs1)C1CCCO1 (configuration not stated),1.8,2.6,-6%,5%,-2.0%,-13
CSCCC(NS(=O)(=O)c1cccs1)C(=O)NCc1cccs1 (configuration not stated),-0.6,0.5,5%,?,-0.7%,-1
Cn1c(NC(=O)c2ccccc2)c(-c2cccs2)c(=O)c2ccccc21,0.1,6.2,10%,-25%,-0.9%,12
Cc1ccc(Nc2c(-c3ccncc3)nc3ccc(C)cn23)cc1,0.6,.,.,.,-6.5%,19
Cc1ccccc1CN1CCN(Cc2ccccc2C(F)(F)F)CC1,2.0,-3.6,5%,-6%,1.5%,-10
O=C(c1ccc2c3c(cccc13)C(=O)N(O)C2=O)N1CCCCC1,-0.7,2.3,0%,1%,-0.6%,4
COc1ccccc1CN(C)C(=O)COC(=O)c1ccc(Cl)nc1,-1.2,.,7%,18%,.,7
CCCC1CCC(C2=N/C(=C\c3ccc(OC)c(OC)c3)C(=O)O2)CC1 (configuration not stated),-1.0,0.6,0%,-8%,0.9%,-4
COC(=O)c1ccc2[nH]c([C@H](C)O)c([C@H](C)O)c2c1,-0.7,?,-1%,?,-9.4%,7
Cc1nnc(C)n1/N=C/c1cc2ccccc2nc1Cl,-0.5,2.5,7%,-1%[15.4 µM],0.7%,-1
COc1ccc(NS(=O)(=O)c2ccc(-c3coc(C)n3)cc2)cc1,1.2,1.8,-11%,8%,-3.8%,4
O=C(CC(O)(c1ccccc1)c1ccccc1)Nc1ccccn1,1.5,.,-19%,0%,1.0%,9
Cc1ccc(C(=O)Nc2cccc(-c3nc4ncccc4o3)c2)cc1,-0.3,3.6,?,3%[15.4 µM],-3.2%,11
Fc1ccc(CNCC2CCCO2)cc1 (configuration not stated),0.5,0.5,10%,-23%[15.4 µM],-8.3%,-5
CSc1ncc(Sc2ccccc2)c(C(=O)O)n1,0.3,.,-38%,-9%[15.4 µM],1.7%,-12
CCC/C(=C1/C(=O)CC(C)(C)C(C(=O)OC)C1=O)N1CCCC1 (configuration not stated),-0.8,-1.1,-8%,5%,-0.1%,?

# Profiles from above.
# Record of COC(=O)c1ccc2[nH]c([C@H](C)O)c([C@H](C)O)c2c1 → TRPML1 ag = -0.7; Menin-MLL FL inh = ?; gsp antag = -1%; gsp ag = ?; ClpP mod = -9.4%; TRPML1 inh = 7
# Record of Cc1ccc(Nc2c(-c3ccncc3)nc3ccc(C)cn23)cc1 → TRPML1 ag = 0.6; Menin-MLL FL inh = .; gsp antag = .; gsp ag = .; ClpP mod = -6.5%; TRPML1 inh = 19

# Carrying on:
SMILES,TRPML1 ag,Menin-MLL FL inh,gsp antag,gsp ag,ClpP mod,TRPML1 inh
O=C(N1CCOCC1)N1CCN(c2ccccn2)CC1,-0.5,5.1,2%,15%,?,15
COc1ccc(-c2nc3cc(NC(=O)Cc4ccc(OC)c(OC)c4)ccc3o2)cc1,-0.2,2.8,?,-1%,14µM*,-4
Cc1ccccc1NC(=O)CC(NCc1cccnc1)C(=O)O (configuration not stated),-0.6,.,.,.,0.4%,-9
Cc1cccc(C)c1OCc1cc(C(=O)N2CCC(c3ccncc3)CC2)no1,0.7,.,?,3%,0.8%,24
NC(N)=NS(=O)(=O)c1ccc(NC(=S)NC(=O)c2ccncc2)cc1,0.8,-0.2,-1%,19%,.,15
CCc1c(C)c2ccc3c(c2oc1=O)CN(Cc1ccccc1)CO3,2.3,.,.,.,3.9%,12
O=C(NCC(c1cccnc1)N1CCN(c2ccc(F)cc2)CC1)c1ccccc1 (configuration not stated),-1.3,-1.2,-12%,1%,0.3%,4
CCN(CC(=O)Nc1ccccc1Br)C1CCCCC1,-0.4,-3.4,6%,-10%[15.4 µM],0.0%,3
CCCCOP(=O)(c1ccc(N(C)C)cc1)C(O)c1ccc(OC)cc1 (configuration not stated),0.7,-0.6,1%,4%,.,3
CCc1ccc(CNC(=O)c2ccc3c(c2)c(C)c(C)n3Cc2ccccc2)cc1,1.6,.,.,.,25µM*,-20
CCOc1ccc(N2C(=O)CC(Sc3nc(C)cc(C)c3C#N)C2=O)cc1 (configuration not stated),1.1,0.1,-15%,?,-0.4%,-10
CCOc1ccccc1CNC(=O)CCCn1ncn2c(cc3occc32)c1=O,0.4&-0.9,.,-6%,-31%[inhibitor],-1.7%&-1.1%,9&-8
Cc1nn(C(=O)COc2ccc(Cl)cc2)c(C)c1Sc1ccccc1,1.5,.,.,.,-0.4%,4
Fc1ccccc1CSc1nnc(-c2cccs2)o1,1.9,2.2,4%,16%,1.2%,6
COc1ccc(Cl)cc1C(=O)NCCCSc1ccccc1,2.9,-7.6,-16%,-33%,.,24
Cc1cccc(-n2c(C)cc(C(=O)C(=O)Nc3ccccc3F)c2C)c1C,0.3,.,.,.,-1.5%,-12
CCc1ccc2oc(-c3ccc(OC)cc3)cc(=Nc3cccc(C(=O)O)c3)c2c1,0.7,-5.5,.,16%[15.4 µM],.,11
Cc1n[nH]c(C)c1S(=O)(=O)N(CC(=O)N1CCc2ccccc21)c1ccc(C(C)C)cc1,1.0,3.6,-8%,0%,3.2%,0
CCn1ccc(C(=O)Nc2ccc(Cl)cn2)n1,0.0,3.2,3%,-15%,-0.9%,20
Cc1cc(=O)oc2cc(OCC(=O)N3CCN(c4ccccc4)CC3)ccc12,-0.5,.,-15%,-27%,4.3%,-10
Cc1ccc(OCc2cc(=O)n3c(-c4ccccc4)csc3n2)cc1,0.2,.,.,.,-3.7%,12
O=[N+]([O-])c1ccc(CNCc2cc(Cl)ccc2O)cc1,-0.2,.,5%,.,-4.2%,-4
O=C(NC1(C(F)(F)F)N=C(c2ccccc2)N(Cc2ccccc2)C1=O)c1ccc(F)cc1 (configuration not stated),-0.5,.,.,.,-1.1%,-15
CC1CC(C)CN(C(=O)c2cccc(S(=O)(=O)N(C)c3ccccc3)c2)C1 (configuration not stated),0.9,.,-19%,10%[15.4 µM],.,16
Cc1cc(NC(=O)Cn2ccsc2=N)c([N+](=O)[O-])cc1C,-0.6,-3.3,4%,2%[15.4 µM],-3.3%,-4
SMILES,TRPML1 ag,Menin-MLL FL inh,gsp antag,gsp ag,ClpP mod,TRPML1 inh
Cc1nn(-c2ccccc2)c(C)c1NC(=O)COC(=O)c1ccc(Cl)c(S(N)(=O)=O)c1,0.2,.,-17%,-24%,0.7%,1
c1nc(N2CCC3(CC2)OCCO3)c2c3c(sc2n1)CCCC3,0.9,-0.1,6%,?,-27%,23
COc1ccc(C2CC(=O)c3cnc4c(-c5ccc(F)cc5)c(C)nn4c3C2)cc1OC (configuration not stated),-0.5,.,.,.,0.6%,16
O=C(Nc1cccc(NC(=O)c2cccc(F)c2)c1)c1ccccc1,0.5,-0.4,-6%,17%,.,11
NC(=O)C1CCN(CC(O)COCc2ccccc2Cl)CC1 (configuration not stated),1.6,-3.7,7%,-23%[15.4 µM],.,4
CCC1CCCCN1C(=O)CSc1nnc(CNC(=O)c2c(F)cccc2Cl)o1 (configuration not stated),-0.1,.,1%,-1%,1.0%,22
O=C(Nc1ccc2c(c1)OCO2)c1cc(-c2cccc(Cl)c2)on1,-0.3,.,.,.,-1.5%,1
Cc1cccc(NC(=O)CNC(=O)c2ccc3c(c2)OCO3)n1,-0.7,.,2%,-1%,-14%,-7
CNC(=S)NCCN1CCOCC1,0.4,5.7,15%,-39%[inhibitor],-1.8%,-2
COCc1cc(=O)[nH]c(/N=C(\N)Nc2ccc(C)cc2)n1,-0.6,2.5,6%,-22%,0.7%,-2
O=C(O)CNS(=O)(=O)c1ccc2c(c1)CCCC2,0.4,1.2,2%,1%,.,2
OCCNCC1(O)C2CC3CC(C2)CC1C3 (configuration not stated),-0.7,-1.1,11%,10%,1.9%,0
O=C(OCC(=O)N1CCCCC1)c1ccccc1SCC(=O)N1CCCCC1,-0.6,-3.1,3%,-5%[15.4 µM],0.2%,-7
Cc1c(C#N)c(N=CN(C)C)c(C(=O)c2ccc(Br)cc2)n1-c1ccccc1,-0.8,2.8,-10%,-37%[inhibitor],-0.7%,-2
Cc1c(F)cccc1NC(=O)C1CCCN1S(=O)(=O)c1ccc(F)cc1 (configuration not stated),1.0,.,.,.,-4.4%,12
Cn1c(C(=O)OCC(=O)NCCc2ccccc2)cc2sccc21,0.5,4.6,9%,-24%,1.4%,?
CCOc1ccccc1C(=O)N1CC(=O)Nc2ccc(Cl)cc2C1c1ccccc1 (configuration not stated),2.9,.,.,.,-1.9%,-14
CC1=C(C(N)=O)C(c2ccc(F)cc2)n2nc(-c3ccccc3Cl)nc2N1 (configuration not stated),-0.4,.,.,.,0.7%,5
C=CCNCC(=O)Nc1sc2c(c1C(=O)Nc1ccc(OC)cc1OC)CCC2,0.8,13,-17%,-57%[inhibitor],?,49
N#CCc1c(C#N)c(N)nc(N2CCN(Cc3ccc4c(c3)OCO4)CC2)c1C#N,1.2,11,-10%,-25%,-11%,9
COC(=O)Oc1ccc(/C=N/NC(=O)CN(c2ccccc2Cl)S(C)(=O)=O)cc1OC,1.2,2.0,-5%,-68%[inhibitor],-2.8%,19
Cc1cc(C)c(OCCNC(=O)c2ccccc2Sc2ccccc2C#N)c(C)c1,7.0,1.9,?,?,-4.7%,74
O=[N+]([O-])c1nn(-c2ccc3c(c2)OCCO3)n(O)c1=Nc1ccc(Cl)cc1,-0.7,1.1,0%,-8%,-0.3%,-5
